FGF22 binding: binders of human FGF22 protein, primary screen, FGF22 synaptogenesis inhibitor project, biophysical, thermal shift, single point; recombinant FGF22 thermal shift, SYPRO orange fluorescence; percent of sucrose octasulfate shift, DMSO zero; calls only at 9.99 µM; hit rate 1.5% among 340,000; AID 651658, 2012;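 active means melting point raised past a set limit in the mean and every replicate; three in four hits are not shown here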
Target sequence (Q9HCT0 whole entry, looked up): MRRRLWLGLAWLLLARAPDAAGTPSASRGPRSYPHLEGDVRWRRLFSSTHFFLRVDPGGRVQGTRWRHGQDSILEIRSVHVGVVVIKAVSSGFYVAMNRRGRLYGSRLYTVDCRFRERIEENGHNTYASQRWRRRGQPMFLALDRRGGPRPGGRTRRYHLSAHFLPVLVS
rRNA inh HTS: reduced GFP signal of wild-type E. coli, primary screen, bacterial rRNA inhibitor project, GFP/RFP fluorescence, OD600, single point. E. coli WT GFP vs humanized-ribosome RFP mutants, 24 h; active compounds read low; DMSO median 0, no signal -100. GFP signal change (wild-type ribosome), % (concentration not given with the values). hit rate 1.6% among 350,000. AID 720706, 2013;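 active means significant combined selectivity score with lowered wild-type GFP, culture density cut under 30%, mutant RFP and density less affected; inactive means any of these conditions unmet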; further: one replicate is shown; some compounds called inactive have numbers as strong as hits
rRNA inh HTS OD600: recorded beside rRNA inh HTS, whose call it bears; OD600 change, %; measured here: OD600 growth;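 optical density of the mix in the first replicate; 0 = DMSO median and -100 = no signal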
rRNA inh HTS RFP: further read-out of rRNA inh HTS, marked with its call; RFP signal change, %; measured here: RFP humanized mutant strains;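 first replicate; 0 = DMSO median and -100 = no signal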
The depositor's hits bear a star; i = inactive. Not all compounds are listed, so the mix of outcomes need not match the whole.

smiles	FGF22 binding	rRNA inh HTS	rRNA inh HTS OD600	rRNA inh HTS RFP
C[C@H](CO)N1C[C@H](C)[C@@H](CN(C)C(=O)C2CCOCC2)Oc2ncc(-c3ccccc3F)cc2C1=O	i	7	6	-3.3
CC(C)NC(=O)N1[C@H](CO)[C@@H]2c3ccccc3N(C(=O)C3CCC3)C[C@@H]21	i	4	2	1.1
COCC(=O)Nc1ccc2c(c1)C(=O)N(C)C[C@H](OC)[C@H](C)CN(C(=O)c1ccccc1)[C@H](C)CO2	i	-1	-6	0.4
COc1ccc(NC(=O)N(C)C[C@@H]2OCCCC[C@@H](C)Oc3ccc(NC(=O)Nc4ccccc4)cc3C(=O)N([C@@H](C)CO)C[C@H]2C)cc1	i	1	-4	1.3
O=C(Nc1ccc2c(c1)[C@@H]1C[C@@H](CC(=O)N3CCc4ccccc4C3)O[C@H](CO)[C@@H]1O2)c1ccc2c(c1)OCO2	i	-5	-12	0.2
CCCN1[C@@H]2Cn3c(cccc3=O)[C@H]1[C@@H](C(=O)Nc1ccccc1)[C@@H]2CO	i	0	7	-0.1
CO[C@H]1CN(C)C(=O)c2cc(NC(=O)C3CCCC3)ccc2OC[C@H](C)N(C(=O)CC2CC2)C[C@@H]1C	i	-1	2	-0.5
CCCN1[C@@H]2c3ccc(-c4ccccc4)c(=O)n3C[C@@H]2[C@@H](CO)[C@@H]1C(=O)NCCc1cn(C)cn1	i	0	-1	2.7
C[C@@H]1CN([C@@H](C)CO)C(=O)c2cc(NC(=O)C3CCCCC3)ccc2O[C@@H](C)CCCCO[C@@H]1CN(C)C(=O)C1CCCCC1	i	2	6	0.6
COc1ccc(NC(=O)N(C)C[C@H]2Oc3ccc(NS(=O)(=O)c4cn(C)cn4)cc3C(=O)N([C@H](C)CO)C[C@H]2C)cc1	i	-2	-1	-0.8
C/C=C/c1ccc([C@H]2[C@@H](CO)N(c3nc(CC)cs3)[C@H]2CNC(C)C)cc1	i	-1	-46	35
CCCC(=O)Nc1ccc2c(c1)C(=O)N(C)C[C@@H](OC)[C@H](C)CN(Cc1ccc(-c3ccccn3)cc1)[C@H](C)CO2	i	-4	-7	1.8
C[C@@H]1CCCCO[C@@H](CN(C)C(=O)NC2CCCCC2)[C@@H](C)CN([C@H](C)CO)C(=O)c2cc(NC(=O)CCCN(C)C)ccc2O1	i	2	3	-3.4
COc1ccc2c3c([nH]c2c1)[C@H](CO)N(C(=O)Nc1cccc(F)c1)CC31CN(CC2CC2)C1	i	-8	-14	1.2
COc1ccc(S(=O)(=O)N[C@H]2CC[C@H](CC(=O)N3CCN(c4ccccc4)CC3)O[C@@H]2CO)cc1	i	-2	3	0.9
Cc1ccccc1S(=O)(=O)N1CCCCN2[C@H](CO)[C@@H](c3ccc(-c4cccc(F)c4)cc3)[C@@H]2C1	i	-4	5	1.2
COc1ccccc1CNC(=O)C[C@H]1CC[C@H]2[C@@H](COc3ccc(NC(C)=O)cc3C(=O)N2C)O1	i	2	6	-1.7
CCC(=O)N1C[C@@H](C)[C@H](OC)CN(C)C(=O)c2ccc(NC(=O)NC(C)C)cc2OC[C@H]1C	i	2	1	0.4
O=C(C[C@@H]1CC[C@H](NC(=O)c2cccnc2)[C@@H](CO)O1)NCc1ccncn1	i	5	7	-1.5
C[C@@H]1CN([C@H](C)CO)C(=O)Cc2cc(NC(=O)Cc3cn(C)c4ccccc34)ccc2O[C@H]1CN(C)Cc1ccc(-c2ccccc2)cc1	i	1	7	-1.6
CN1CCN(C(=O)C[C@H]2CC[C@@H](NC(=O)Cc3ccccn3)[C@H](CO)O2)CC1	i	3	1	0.0
O=S(=O)(c1cccs1)N1CCCCN2[C@@H](CO)[C@@H](c3ccc(-c4ccccc4)cc3)[C@@H]2C1	i	-54	-62	-5.4
CCC(=O)N(C)C[C@@H]1Oc2cc(-c3cccc(OC)c3)ccc2S(=O)(=O)N([C@@H](C)CO)C[C@H]1C	i	-5	-13	-0.4
C[C@@H]1CN([C@@H](C)CO)C(=O)c2cccc(NC(=O)C3CC3)c2O[C@@H]1CN(C)CC1CC1	i	7	3	-1.5

Some of these compounds in order of SMILES length, ascending.
smiles	FGF22 binding	rRNA inh HTS	rRNA inh HTS OD600	rRNA inh HTS RFP
O=C(C[C@@H]1CC[C@H](NC(=O)c2cccnc2)[C@@H](CO)O1)NCc1ccncn1	i	5	7	-1.5
CCCC(=O)Nc1ccc2c(c1)C(=O)N(C)C[C@@H](OC)[C@H](C)CN(Cc1ccc(-c3ccccn3)cc1)[C@H](C)CO2	i	-4	-7	1.8
C[C@@H]1CN([C@@H](C)CO)C(=O)c2cc(NC(=O)C3CCCCC3)ccc2O[C@@H](C)CCCCO[C@@H]1CN(C)C(=O)C1CCCCC1	i	2	6	0.6

More records follow.
smiles	FGF22 binding	rRNA inh HTS	rRNA inh HTS OD600	rRNA inh HTS RFP
C[C@H](CO)N1C[C@H](C)[C@H](CN(C)C(=O)NC2CCCCC2)Oc2ccc(NC(=O)Nc3ccccc3)cc2C1=O	i	-9	-9	1.1
CNC[C@@H]1Oc2c(NC(=O)C3CCCCC3)cccc2C(=O)N([C@@H](C)CO)C[C@H]1C	i	-4	-15	-0.9
COc1ccc(S(=O)(=O)Nc2ccc3c(c2)C(=O)N([C@H](C)CO)C[C@@H](C)[C@@H](CN(C)Cc2ccccc2)O3)cc1	i	0	2	0.7
C[C@H]1CN([C@@H](C)CO)C(=O)c2cccc(NS(=O)(=O)c3ccccc3)c2O[C@@H]1CN(C)Cc1ccc(-c2ccccc2)cc1	i	1	-2	1.9
CO[C@H]1CN(C)C(=O)c2cc(NC(=O)c3cccc(F)c3)ccc2OC[C@@H](C)N(CC2CC2)C[C@H]1C	i	1	2	-2.0
O=C(Cc1ccncc1)NCC[C@H]1CC[C@@H](NC(=O)C2CC2)[C@H](CO)O1	i	-1	8	-2.1
C[C@@H]1CN([C@H](C)CO)C(=O)c2cc(NS(=O)(=O)c3ccccc3)ccc2O[C@@H](C)CCCCO[C@@H]1CN(C)C(=O)NC1CCCCC1	i	-3	-9	3.7
C[C@@H]1CCCCO[C@H](CN(C)C(=O)c2ccccc2)[C@H](C)CN([C@H](C)CO)C(=O)c2cc(NC(=O)C3CCCCC3)ccc2O1	i	-1	-5	0.0
CN(C)CCCNC(=O)C[C@@H]1CC[C@@H](NS(=O)(=O)c2ccc(F)cc2)[C@@H](CO)O1	i	2	4	-1.3
CC(C)NC(=O)Nc1ccc2c(c1)C(=O)N([C@H](C)CO)C[C@@H](C)[C@@H](CN(C)S(=O)(=O)c1ccc(Cl)cc1)OCCCC[C@@H](C)O2	i	-2	3	3.5
COCC#Cc1ccc([C@H]2[C@@H](CO)N3C(=O)CN(C(=O)C4CCCCC4)C[C@H]23)cc1	i	3	9	-2.4
CN(C)CCCNC(=O)[C@H]1[C@H](CO)[C@H]2Cn3c(cccc3=O)[C@@H]1N2C(=O)Nc1cc(F)ccc1F	i	1	4	-4.9
C[C@@H]1CN([C@H](C)CO)S(=O)(=O)c2ccc(-c3cccnc3)cc2O[C@@H]1CN(C)C(=O)c1cccc(F)c1	i	-1	-5	2.6
C[C@@H]1CN([C@@H](C)CO)C(=O)Cc2cc(NC(=O)NC3CCCCC3)ccc2O[C@@H]1CN(C)C(=O)Nc1ccc2c(c1)OCO2	i	3	6	2.3
CCS(=O)(=O)NCC[C@H]1CC[C@@H](NC(=O)C2CCC2)[C@H](CO)O1	i	3	2	1.5
COc1ccc(NC(=O)Nc2ccc3c(c2)C(=O)N([C@H](C)CO)C[C@H](C)[C@H](CN(C)C(=O)Nc2ccc(F)cc2)OCCCC[C@@H](C)O3)cc1	i	4	7	-0.8

Looked up above.
rRNA inh HTS RFP result of `CN(C)CCCNC(=O)C[C@@H]1CC[C@@H](NS(=O)(=O)c2ccc(F)cc2)[C@@H](CO)O1` reads -1.3
rRNA inh HTS RFP result of `COc1ccc(NC(=O)Nc2ccc3c(c2)C(=O)N([C@H](C)CO)C[C@H](C)[C@H](CN(C)C(=O)Nc2ccc(F)cc2)OCCCC[C@@H](C)O3)cc1` reads -0.8

The listing continues:
smiles	FGF22 binding	rRNA inh HTS	rRNA inh HTS OD600	rRNA inh HTS RFP
COc1ccc(S(=O)(=O)Nc2cccc3c2O[C@@H](CN(C)S(=O)(=O)c2ccc(OC)cc2)[C@@H](C)CN([C@@H](C)CO)C3=O)cc1	i	-2	1	0.9
OC[C@@H]1[C@@H](c2ccc(/C=C/c3ccccc3)cc2)[C@@H]2CN(Cc3ccncc3)CCCCN12	i	-56	-79	-5.6
C[C@@H]1CN([C@H](C)CO)C(=O)Cc2cc(NS(=O)(=O)c3ccc(Cl)cc3)ccc2O[C@H]1CN(C)CC1CC1	i	1	4	1.0
CS(=O)(=O)N1CC(=O)N2[C@H](C1)[C@H](c1ccc(Br)cc1)[C@@H]2CO	i	1	5	-3.2
C[C@H]1CN([C@@H](C)CO)C(=O)Cc2cc(NS(=O)(=O)c3cn(C)cn3)ccc2O[C@@H]1CN(C)Cc1ccc(-c2ccccc2)cc1	i	7	-12	4.5
CC(=O)Nc1ccc2c(c1)C(=O)N(C)[C@H]1CC[C@H](CC(=O)NCc3ccc(F)cc3)O[C@@H]1CO2	i	-1	-1	-2.4
C[C@H]1CN([C@@H](C)CO)C(=O)c2cccc(NC(=O)c3cnccn3)c2O[C@H]1CN(C)S(=O)(=O)c1cccs1	i	-2	10	-2.0
COc1ccc2c3c([nH]c2c1)[C@@H](CO)N(C(=O)c1ccc(F)cc1)CC31CN(C(=O)CC2CC2)C1	i	-2	-2	-0.6

(listing goes on)
Each structure is followed by: FGF22 binding | rRNA inh HTS | rRNA inh HTS OD600 | rRNA inh HTS RFP
> C[C@@H]1CN([C@H](C)CO)S(=O)(=O)c2ccc(-c3ccccc3)cc2O[C@@H]1CN(C)C(=O)CC1CC1
    i | -2 | -13 | 1.0
> CC(C)CC#Cc1ccc2c(c1)O[C@@H](CN(C)CC1CC1)[C@@H](C)CN([C@@H](C)CO)S2(=O)=O
    i | 1 | 5 | 1.2
> C[C@@H](O)C#Cc1ccc([C@@H]2[C@H]3CN(CC4CCOCC4)CCCCN3[C@H]2CO)cc1
    i | 4 | 2 | -0.2
> Cc1nn(C)cc1NC(=O)C[C@@H]1CC[C@H]2[C@@H](COc3ccc(NC(=O)Nc4cccc(Cl)c4)cc3C(=O)N2C)O1
    i | -6 | -13 | 5.3
> Cc1ccccc1S(=O)(=O)N1CC[C@@H]2[C@H]1c1cc(-c3cccc(C#N)c3)ccc1N(C)[C@H]2CO
    i | -2 | 4 | 2.7
> CCC(=O)N1CC[C@@H]2[C@H](CO)Nc3ccc(-c4cccc(C#N)c4)cc3[C@@H]21
    i | 4 | -12 | -3.4
> O=S(=O)(N[C@H]1CC[C@@H](CCn2cc(C3(O)CCCC3)nn2)O[C@@H]1CO)c1ccccc1
    i | 1 | 4 | 0.1
> COc1ccc(NC(=O)N[C@H]2CC[C@@H](CCn3cc(C4(O)CCCC4)nn3)O[C@@H]2CO)cc1
    i | 1 | 1 | -1.1
> C[C@H]1CCCCO[C@H](CN(C)Cc2ccc(Cl)c(Cl)c2)[C@@H](C)CN([C@@H](C)CO)C(=O)c2cc(NS(C)(=O)=O)ccc2O1
    i | -34 | -63 | 12
> CN(C)CC#Cc1ccc([C@H]2[C@H](CO)N3CCCCN(C(=O)CN(C)C)C[C@@H]23)cc1
    i | 4 | 17 | 2.0
> Cc1noc(C)c1NC(=O)Nc1cccc2c1O[C@H](CN(C)C(=O)NC(C)C)[C@@H](C)CN([C@@H](C)CO)C2=O
    i | 1 | 3 | -2.9
> Cc1ccc(N(C)C)cc1
    i | 11 | 11 | 2.3
> C[C@H](NC(=O)[C@@H]1[C@@H](CO)[C@@H]2Cn3c(cccc3=O)[C@H]1N2Cc1ccncc1)c1ccccc1
    i | 1 | 5 | -1.8
> CC(C)NC(=O)N[C@H]1CC[C@H](CCN)O[C@H]1CO
    i | 5 | 12 | 3.0
> C[C@@H]1CN([C@@H](C)CO)C(=O)c2cccc(NC(=O)CCCCCC(=O)Nc3ccccc3N)c2O[C@@H]1CN(C)Cc1ccc(Cl)c(Cl)c1
    i | -7 | -7 | -1.3
> CO[C@H](CN(C)C(=O)c1ccc2c(c1)OCO2)[C@@H](C)CN([C@@H](C)CO)S(=O)(=O)c1ccccc1
    i | 1 | 0 | -2.0
> Cc1noc(C)c1S(=O)(=O)Nc1ccc2c(c1)C(=O)N([C@H](C)CO)C[C@@H](C)[C@H](CN(C)S(=O)(=O)c1ccc(F)cc1)O2
    i | 1 | -5 | -0.6
> C[C@@H]1CCCCO[C@H](CN(C)S(=O)(=O)c2ccc(Cl)cc2)[C@H](C)CN([C@@H](C)CO)C(=O)c2cc(NS(=O)(=O)c3cccs3)ccc2O1
    i | 0 | -2 | -0.1
> COc1ccccc1S(=O)(=O)Nc1ccc2c(c1)OC[C@H](C)NC[C@H](C)[C@H](OC)CN(C)C2=O
    i | 1 | 4 | -0.9
> C[C@@H]1CN([C@H](C)CO)C(=O)c2cc(NC(=O)NC3CCCCC3)ccc2O[C@@H](C)CCCCO[C@@H]1CN(C)C(=O)C1CCCCC1
    i | 0 | -9 | 0.0
> CNC(=O)C[C@H]1CC[C@H]2[C@@H](COc3ccc(NC(=O)c4cnccn4)cc3C(=O)N2C)O1
    i | -1 | 2 | 1.8
> C/C=C/c1ccc2c(c1)O[C@@H](CN(C)C(=O)c1ccccc1)[C@H](C)CN([C@@H](C)CO)S2(=O)=O
    i | -9 | -14 | -1.6
